YopH PTP inh: YopH (Yersinia) phosphatase inhibition; fluorescence Ex485/Em525; inhibition, %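 (about 10 µM by stock and volumes)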; AID 898; 0.16% of 140,000 active;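 active = inhibition of 50% or more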;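 also: controls were vehicle for no effect and minimum signal wells for full effect; inactives centre near -20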
RecA splice inh: blocks M. tuberculosis RecA intein splicing; P9WHJ3; cell-free RecA intein splicing, fluorescence; inhibition, %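 (about 9 µM by stock and volumes)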; 0.75% of 290,000 active; in the data active = inhibition above about 30%; inconclusive = no clear call, values can overlap the other calls;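 also: 0% = vehicle wells and 100% = reference inhibitor control wells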
Target sequence (P9WHJ3 whole entry, looked up, canonical isoform): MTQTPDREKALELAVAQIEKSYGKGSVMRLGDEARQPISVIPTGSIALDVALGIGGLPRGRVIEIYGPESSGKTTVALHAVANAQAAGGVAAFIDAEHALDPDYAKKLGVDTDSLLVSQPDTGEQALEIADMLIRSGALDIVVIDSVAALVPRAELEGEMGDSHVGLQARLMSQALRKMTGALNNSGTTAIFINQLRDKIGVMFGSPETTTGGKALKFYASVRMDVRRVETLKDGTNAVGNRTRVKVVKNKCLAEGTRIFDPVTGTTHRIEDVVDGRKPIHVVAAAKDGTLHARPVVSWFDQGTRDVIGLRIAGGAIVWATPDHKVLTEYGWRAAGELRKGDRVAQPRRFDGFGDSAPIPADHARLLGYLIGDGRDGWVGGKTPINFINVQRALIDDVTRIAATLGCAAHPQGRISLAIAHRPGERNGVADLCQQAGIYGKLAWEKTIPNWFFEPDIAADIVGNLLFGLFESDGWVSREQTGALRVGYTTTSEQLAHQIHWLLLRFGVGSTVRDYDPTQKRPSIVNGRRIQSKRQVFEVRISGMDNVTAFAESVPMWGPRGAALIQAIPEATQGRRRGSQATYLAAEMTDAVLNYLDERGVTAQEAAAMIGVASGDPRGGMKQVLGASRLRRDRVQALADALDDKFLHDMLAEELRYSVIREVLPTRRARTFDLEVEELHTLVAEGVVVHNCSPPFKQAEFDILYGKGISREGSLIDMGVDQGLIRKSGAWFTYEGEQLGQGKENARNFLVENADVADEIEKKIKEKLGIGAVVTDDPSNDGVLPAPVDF
Mtb betalactam: beta-lactam sensitization of Mtb H37Rv. M. tuberculosis H37Rv growth with meropenem, percent inhibition; hits of this screen are not shown here. inhibition, % at 25 µM. 0.27% of 330,000 active. AID 434955;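 active = about 74% or more and at least 40 points above the plate without the antibiotic, then above 30% in a dose series; inconclusive = first-round hits that could not be retested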;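 also: growth measured after seven days incubation then overnight dye step; 0% = bacteria only wells and 100% = bacteria with antibiotic; twin plates without the antibiotic show which effects depend on it; some results filed as inactive read as strong as hits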
Mtb H37Rv: M. tuberculosis H37Rv growth inhibitors, H37Rv strain (AID 1626). inhibition, % at 10 µM; hits with a dose series show IC50 in µM. 0.95% of 220,000 active. M. tuberculosis H37Rv growth inhibition; higher % means a stronger effect;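 active = confirmed in a dose series; inconclusive = inhibition above 80% but not taken into the dose series; inactive = below 80% or under 30% at every dose of the series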;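 also: bacteria incubated seven days before Alamar blue readout; 0% = bacteria only wells and 100% = bacteria with antibiotic wells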
Arbovirus anti: blocks arbovirus infection; arbovirus infection cell-based antiviral screen; inhibition, % at 10 µM; 0.37% of 200,000 active; AID 1251;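 active = inhibition from about 30%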;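 also: bluetongue infection of BSR cells; cell survival read as ATP light after 72 h; 0% = infected wells without compound and 100% = uninfected wells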
Arbovirus anti repeat: also measured in Arbovirus anti; calls as there; inhibition, %; measured here: 10K subset replicate screen; many hits read low in the repeat;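 first of two repeat runs on a subset; 0% = infected and 100% = uninfected wells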
* marks the source's active call; other numbers are inactive results; u = inconclusive; x = not tested or not shown.

SMILES	YopH PTP inh	RecA splice inh	Mtb betalactam	Mtb H37Rv	Arbovirus anti	others
COc1ccc(CCNC(=O)c2cc3ccccn3n2)c(OC)c1OC	-40	1.8	-10	65%	5	Arbovirus anti repeat=0
NC(N)=Nc1nc2ccc(Br)cc2c(=O)[nH]1	x	-1.9	0	4%	-3
COCCNc1ncnc2c1cnn2-c1ccc(Cl)cc1	17	5.8	13	4%	0
CC12CCC(C(=O)NCCCn3ccnc3)(OC1=O)C2(C)C (stereo unspecified)	-2	3.0	2	-1%	7
COC(=O)C1CCN(S(C)(=O)=O)CC1	4	-0.5	3	-16%	-4
COc1ccc(C)cc1S(=O)(=O)N1CCC(C(=O)NCCC2=CCCCC2)CC1	-2	x	2	9%	0
Cc1cccc(N2CCN(S(=O)(=O)c3ccc4[nH]c(=O)c(=O)[nH]c4c3)CC2C)c1 (stereo unspecified)	-13	3.1	2	x	3
O=C(CN1C(=O)C2CC=CCC2C1=O)Nc1ccc(S(=O)(=O)Nc2ncccn2)cc1 (stereo unspecified)	x	2.0	-4	-8%	x
Cc1nc(C)n(CC(=O)c2ccc(Cl)cc2Cl)n1	x	-0.5	-1	x	x
COC(=O)C(O)(c1ccc(NC(=O)NC2CCCCC2)cc1)C(F)(F)F (stereo unspecified)	-28	-1.6	1	-1%	6
N/C(=N\OC(=O)c1cc(-c2ccccc2)nc2ccccc12)c1ccccn1	x	0.7	62	-1%	-23
CCOC(=O)N1CCN(c2nnc(-c3ccc(C)cc3)c3ccccc23)CC1	x	7.2	7	x	x

3 entries from above, arranged by number of heavy atoms, descending:
SMILES	YopH PTP inh	RecA splice inh	Mtb betalactam	Mtb H37Rv	Arbovirus anti	others
CCOC(=O)N1CCN(c2nnc(-c3ccc(C)cc3)c3ccccc23)CC1	x	7.2	7	x	x
COCCNc1ncnc2c1cnn2-c1ccc(Cl)cc1	17	5.8	13	4%	0
COC(=O)C1CCN(S(C)(=O)=O)CC1	4	-0.5	3	-16%	-4

Reprinted at random: 3 records from the list.
SMILES	YopH PTP inh	RecA splice inh	Mtb betalactam	Mtb H37Rv	Arbovirus anti	others
O=C(CN1C(=O)C2CC=CCC2C1=O)Nc1ccc(S(=O)(=O)Nc2ncccn2)cc1 (stereo unspecified)	x	2.0	-4	-8%	x
CC12CCC(C(=O)NCCCn3ccnc3)(OC1=O)C2(C)C (stereo unspecified)	-2	3.0	2	-1%	7
COC(=O)C1CCN(S(C)(=O)=O)CC1	4	-0.5	3	-16%	-4

The results go on:
SMILES	YopH PTP inh	RecA splice inh	Mtb betalactam	Mtb H37Rv	Arbovirus anti	others
CCCc1nnc(SCC(=O)Nc2ccc3c(c2)OCCO3)n1CCOC	x	1.3	1	x	x
Cc1ccc(OCC(O)CN2CCN(CC(O)COC(C)C)CC2)c(C(C)(C)C)c1 (stereo unspecified)	-6	1.1	-3	8%	-19
CCCc1[nH]n(-c2ccc(F)cc2)c(=O)c1C=Nc1ccc(C)cc1	-23	-1.0	9	-1%	-1
CC(=O)N1CCCc2cc(S(=O)(=O)N3CCCC(C(=O)Nc4ccc(C)cc4C)C3)ccc21 (stereo unspecified)	x	-1.3	1	x	x
Cc1[nH]c2ccc(F)cc2c1CCN(Cc1ccncc1)C(=S)Nc1ccc(F)cc1	x	8.4	-8	15%	2
Cc1ccc(C(=O)N/C(=C\c2ccc(-c3ccc(Br)cc3)o2)C(=O)NC2CCS(=O)(=O)C2)cc1 (stereo unspecified)	-20	-0.5	-1	-4%	-8
CC(=O)NS(=O)(=O)c1ccc(NC(=O)/C=C/c2ccco2)cc1	x	2.8	-4	-9%	1
CSCCC(NS(=O)(=O)c1ccc2ccccc2c1)C(=O)O (stereo unspecified)	-4	x	-10	-4%	-2
O=C(Cc1ccc(Br)cc1)Nc1cccc(Cl)c1	x	4.6	2	-3%	7
C=CCNC(=O)N1CCC(CO)(Cc2ccc(Cl)cc2)CC1	x	1.6	0	11%	1
COc1cc(C(=O)Nn2c(CC(C)C)nc3ccccc3c2=O)cc(OC)c1OC	x	4.8	1	x	x
COc1cc(C(=O)Nc2sc3c(c2C(=O)NCc2ccco2)CCCC3)cc(OC)c1OC	-5	-8.0	0	6%	-9
Cc1nc(-c2noc(-c3ccccc3Cl)n2)c(C(F)(F)F)o1	x	0.7	3	-3%	x
CCC(C)(C)n1nnnc1C(C(C)C)N(CCN1CCOCC1)Cc1cc2cccc(C)c2[nH]c1=O (stereo unspecified)	3	-1.6	-8	0%	5
CC1CCCCN1C(=O)CN1C(=O)CN(C)C(=O)c2ccccc21 (stereo unspecified)	-27	-1.7	-4	4%	9
COc1ccc2c(CC(=O)NCCN3C(=O)S/C(=C\c4cccnc4)C3=O)coc2c1	x	5.1	-6	1%	6
CC1=C(C(=O)Nc2ccc(Br)cc2)C(c2ccco2)NC(=O)N1 (stereo unspecified)	-6	-0.3	-1	-5%	17
CCC(=O)c1cn(/C(=C\C(=O)OC(C)(C)C)CCC(OC)OC)cc1CC	x	0.0	-2	x	x
O=C(Cc1ccccc1)Nn1c(O)c(/C=C2\C=Nc3ccccc32)sc1=S	-8	-0.8	3	46%	-4
Nc1nc(-c2ccccn2)nc(N)c1Cc1ccc(Cl)cc1Cl	x	0.2	73	u	-28
O=C(c1ccc(Br)o1)N1CCN(c2ccc3nnc(-c4ccc(F)cc4)n3n2)CC1	-26	-0.1	-6	14%	-2
CC(=O)Oc1ccc2c3c(c(=O)oc2c1)CCCC3	x	3.2	8	x	x
O=C1/C(=C/c2ccc(F)cc2)Oc2cc(OC(=O)N3CCOCC3)ccc21	x	-0.6	-3	-3%	x
Cc1nc(SCC(=O)N2CCc3ccccc32)n[nH]1	-4	-2.3	-6	0%	-7
O=C(CCc1nnc2ccc(NCc3ccccc3)nn12)NC1CCCCC1	x	1.8	-5	x	x
Cc1cc2nnc(SCC(=O)NC3CCCCC3)n2c(N)n1	x	-2.7	7	x	x
CSC1=N/C(=C\c2ccccc2F)C(=O)S1	-8	0.7	0	x	-1	Arbovirus anti repeat=9
Cc1ccc(NC(=O)C(C)N=C2NS(=O)(=O)c3ccccc32)cc1 (stereo unspecified)	x	-0.1	-8	5%	-3
CC(=O)N1c2ccc(S(=O)(=O)NCC3CCC(C(=O)N4CC(C)CC(C)C4)CC3)cc2CC1C (stereo unspecified)	x	-0.1	1	x	x
CCCCC(=O)N1CCN(c2nc3ccc(OCC)cc3s2)CC1	x	-1.8	12	x	x
Cn1cc(CNCc2cnc3ccccn23)c(-c2ccc(Oc3ccccc3)cc2)n1	x	5.7	2	-4%	2
Cc1cc(C)nc(N/N=C/c2ccccc2OCc2ccccc2)n1	-1	-2.4	-1	11%	20
COc1ccc(C(=O)Nc2ccnn2C2CCN(C3CCC3)CC2)cc1	x	-1.8	-2	x	x
CCN1CCN(CCNC(=O)c2ccc(CS(=O)(=O)c3ccccc3C)o2)CC1	-7	1.8	-2	-1%	20
O=C(NC(Nc1nc2ccc([N+](=O)[O-])cc2s1)(C(F)(F)F)C(F)(F)F)c1ccccc1Cl	-7	14	99	2.2µM*	-36
O=C(O)CCc1ccc(-c2cccs2)n1CCc1ccccc1	x	-6.5	11	3%	8
CC(C)(C)NS(=O)(=O)c1ccc(OCC(=O)NCCC2=CCCCC2)cc1	19	3.7	-13	-5%	8
O=C(Cc1ccccc1F)Nc1ccc2c(c1)CCC2	x	3.5	-8	x	x
COc1ccc(-c2nnc3ccc(SCC(=O)Nc4cc(C)on4)nn23)cc1	x	x	x	2%	2
O=C(NCc1ccc(F)cc1)C1CCN(S(=O)(=O)N2CCC3(CC2)OCCO3)CC1	-11	0.1	-2	-11%	4
CC1(C)CN=C(NCc2ccccc2)S1	x	-2.1	-7	x	x
Cc1cc(C)c(OCCOCCN2CCNCC2)c(C)c1	-15	x	0	-7%	-9
CCn1c(SCC(=O)NC2CCCC2)nnc1C(C)C	x	1.2	-5	x	x
O=C1OC(=O)C2C1[C@@H]1CC[C@H]2O1 (stereo partly specified)	-33	-1.2	-1	-10%	-9
CCN1C(=O)N(CC)C(=O)C2(Cc3ccccc3N3CCN(c4ccccc4)CC32)C1=O (stereo unspecified)	x	-3.1	-4	1%	x
CCc1ccc(NC(=O)c2nc(S(=O)(=O)Cc3ccccc3)ncc2Cl)cc1	x	39*	-5	x	x
CC(=O)Nc1cn(-c2ccccc2)nc1-c1ccccc1	x	-0.2	6	0%	-3
Cc1ccc2c(CN(C)Cc3ccc(Cl)cc3Cl)cc(=O)oc2c1	x	12	3	x	x
COc1ccc(C/C(=N\OC(C)=O)c2ccc(OC)cc2)cc1	x	3.4	1	x	x
Cc1cc(CNC(=O)C2CCC(=O)N(CCc3ccc(Cl)cc3)C2)no1 (stereo unspecified)	x	-3.7	-4	x	x
COc1nc(NCCN2CCOCC2)nc(Nc2ccc([N+](=O)[O-])cc2)n1	12	-0.5	x	1%	-3
COc1cccc(CNC(=O)N2CCN(S(=O)(=O)c3ccc(Cl)cc3)CC2)c1	x	-0.4	0	x	x
Cc1cc(CNC(=O)COc2cc(F)ccc2[N+](=O)[O-])c2ccccc2n1	x	-0.5	-10	-6%	6
CC(C)(C)c1csc(NC(=O)Nc2ccccc2)n1	x	1.3	-4	7%	24
CCC(C(N)=NCCc1ccc(OC)c(OC)c1)c1ccccc1 (stereo unspecified)	x	-3.8	-1	x	x
COc1ccc(CCNC(=S)NCCc2c[nH]c3ccccc23)cc1	x	x	-6	53%	2
CCn1c(C)nc2cc(C(=O)NNC(=O)Nc3ccc(Cl)c(Cl)c3)ccc21	x	-1.5	-9	-7%	-2
Cc1ccc(N(C(=O)Cn2nnc(-c3ccc(F)cc3)n2)C(CC(C)C)C(=O)NCC2CCCO2)cc1 (stereo unspecified)	-11	6.3	5	-9%	-1
C=CCOc1ccc(CN(C)C(=O)CN2C(=O)c3ccccc3C2=O)cc1	x	0.8	-2	x	x
C/C(CC(=O)Nc1ccc(Cl)cc1Cl)=N\NC(=O)C(=O)NCCO	-29	-4.3	-7	1%	11

Continued:
SMILES	YopH PTP inh	RecA splice inh	Mtb betalactam	Mtb H37Rv	Arbovirus anti	others
O=C1NC2=C(C(=O)CCC2)C(c2ccc(OC(F)F)cc2)N1 (stereo unspecified)	x	-2.0	-7	x	x
NC(=O)c1ccsc1NC(=O)c1ccc(S(=O)(=O)N2CCCCC2)cc1	-26	0.2	-1	6%	-14	Arbovirus anti repeat=-16
O=C(Cn1nnc(-c2cccc(C(F)(F)F)c2)n1)NC1CCCC1	-44	-2.6	-19	-1%	8
CCOP(=O)(OCC)C(O)c1ccccc1 (stereo unspecified)	x	-3.7	-8	-7%	x
CCC1=C(OC(=O)N(CC)CC)N2C(=O)OC(=NCC(=O)OC)[C@]2(Cc2ccccc2)[C@H]2C1=CC[C@H]1C(=O)NC(=O)[C@H]12	x	-0.1	-2	-7%	x
O=C(CC(SCCO)c1ccc(F)cc1)c1ccco1 (stereo unspecified)	-43	2.2	98	-1%	4
CCc1c(C)nc(N)nc1N1N=C1SCCOc1ccccc1	x	-1.7	0	9%	-1
COc1cccc(CN2CCc3ccc(NC(=O)CCc4ccc(C)cc4)cc3C2)c1O	x	2.6	-1	x	x
O=C(Nc1c(Cl)cccc1Cl)C1CCC1	-21	-0.5	-10	6%	3
Cc1nc(NC(=O)CC(C)C)sc1-c1csc(Nc2ccc(Cl)cc2)n1	1	7.8	96	u	-25
CC(C)(C)NS(=O)(=O)c1ccc2nc(NC(=O)Cc3cccs3)sc2c1	-17	1.5	-11	7%	-21
Cn1ccnc1C1CCCCN1Cc1nc(-c2ccc3c(c2)OCO3)no1 (stereo unspecified)	x	-1.6	-10	2%	-3
COc1cccc(-c2nn(-c3ccc(C)cc3)cc2C(=O)N2CCc3cc(OC)c(OC)cc3C2)c1	x	8.9	5	x	x
CN(CC(=O)Nc1ccc(F)cc1)C(=O)COc1ccc([N+](=O)[O-])cc1Cl	x	-3.0	-4	-1%	4
Cc1cccc(N=C(N2CCOCC2)P(=O)(N2CCOCC2)N2CCOCC2)c1	-23	-0.7	5	2%	0	Arbovirus anti repeat=1
COc1cc(-c2nnc(-c3ccc(S(=O)(=O)c4ccccc4)cc3)o2)cc(OC)c1OC	-41	-2.0	x	6%	9
Cc1cccc(NC(=O)CNc2cc(C)ccc2C)c1	-46	3.2	-8	-11%	-6
Cc1nnc(-c2ccccc2)c[n+]1[O-]	-55	9.8	12	1%	9	Arbovirus anti repeat=-1
Cc1ccc(CS(=O)(=O)c2ccccc2-c2nnc(-c3ccc(Cl)cc3)o2)cc1	-31	-0.4	37	4%	-8
Cc1cc(C)n2nc(C(=O)Nc3ccc(S(=O)(=O)N4CCCCC4)cc3)nc2n1	9	-1.9	14	-5%	0
O=C(c1ccc(S(=O)(=O)Nc2ccccc2Cl)cc1)N1CCOCC1	x	-1.1	-2	x	x
O=C(Nc1nccs1)C1CCN(S(=O)(=O)c2ccc(F)cc2)CC1	x	-1.6	2	x	x

Source: PubChem BioAssay

A portion of the library. The share of hits here may be higher or lower than overall.
